Source: PubChem (National Center for Advancing Translational Sciences (NCATS))
D2 agonist: Beta-Arrestin HTS for Positive Allosteric Modulators of the Human D2 Dopamine Receptor: Agonists | AID 624465, 2012 | 0.084% of 360,000 active | D(2) dopamine receptor (Homo sapiens), P14416 | activation, % (test concentration not listed) | DiscoveRx PathHunter D2 beta-arrestin, luminescence, 90 min; 100% = 57 uM dopamine signal; in the data active = activation above about 40%; inconclusive = about 15% to 40%; inactive = below about 15%; also: compound concentration not given in the record; the text of the record calls up to 30% inactive
Target sequence (P14416 whole entry, looked up): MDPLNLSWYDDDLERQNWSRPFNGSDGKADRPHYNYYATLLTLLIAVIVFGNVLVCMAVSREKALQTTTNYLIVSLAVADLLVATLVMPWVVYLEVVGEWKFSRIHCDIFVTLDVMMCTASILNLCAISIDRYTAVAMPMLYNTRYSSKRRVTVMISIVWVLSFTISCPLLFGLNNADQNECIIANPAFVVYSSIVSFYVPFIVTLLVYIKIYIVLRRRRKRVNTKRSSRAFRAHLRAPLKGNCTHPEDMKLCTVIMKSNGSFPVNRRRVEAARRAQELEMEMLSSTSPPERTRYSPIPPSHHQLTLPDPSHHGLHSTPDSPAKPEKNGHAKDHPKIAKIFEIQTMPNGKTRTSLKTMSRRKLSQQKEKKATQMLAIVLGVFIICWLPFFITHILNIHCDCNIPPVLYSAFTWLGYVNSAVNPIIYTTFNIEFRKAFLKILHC
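DiscoveRx PathHunter D2 beta-arrestin cells (2,100/well) attached overnight, then compound-stimulated 90 min at 37 C in HBSS/10 mM HEPES/0.1% Tween-20 buffer; beta-galactosidase complementation read by luminescence after 1 h at ambient temperature. Dopamine 57 uM final (EC100) as control.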
D2 PAM: Beta-Arrestin HTS for Positive Allosteric Modulators of the Human D2 Dopamine Receptor: Potentiators; D(2) dopamine receptor (Homo sapiens), P14416; DiscoveRx D2 beta-arrestin cells, luminescence, 90 min; 100% = 57 uM dopamine signal; potentiation, % (concentration not given with the values); 0.23% of 360,000 active; active = potentiation of 50% or more; inconclusive = 30% to 50%; inactive = 30% or less;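 also: compound concentration not given in the record; tested on top of an EC20 dose of dopamine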
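D2 cells co-treated with compound plus 50 nM dopamine (EC20) for 90 min at 37 deg C to detect potentiation. Beta-arrestin recruitment was read as enzyme-fragment luminescence after 1 h at ambient temperature. Full response was set by 57 uM dopamine.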
gsp antagonist: qHTS for Antagonists of gsp, the Etiologic Mutation Responsible for Fibrous Dysplasia/McCune-Albright Syndrome: qHTS; gsp-mutant cells, cAMP HTRF, 30 min; control for the full effect not named in the record; Potency, µM (doses to about 76.9 µM), without a hit: at the top dose activity change, negative = inhibition, most hits filed as inhibitors; 0.4% of 340,000 active; AID 624288, 2012; active = falling curve of any shape with a large fitted effect; inconclusive = falling curve, mostly with a smaller effect; inactive = flat or rising curve; cell line not stated here;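 also: intracellular cAMP measured with PDE inhibitor Ro 20-1724 present during compound exposure; potency is read from the fitted curve at half-maximal effect; % is scaled to controls: 0 for no effect and ±100 for the full control effect; nearly all actives have a fitted effect of over 65% in size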
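Cells in G418 medium, seeded 16-24 h, 37C; buffer exchange to DPBS + 1 mM CaCl2, 0.5 mM MgCl2, 0.05% BSA; cpds in DMSO + […] (300 uM stock), 30 min 37C; HTRF cAMP detection.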
gsp ag: qHTS for Agonist of gsp, the Etiologic Mutation Responsible for Fibrous Dysplasia/McCune-Albright Syndrome: qHTS; AID 624287, 2012; Potency, µM (series often up to 76.9 µM), for inactives: at the top dose activation (cAMP increase), most hits filed as activators; 0.13% of 340,000 active; gsp mutant cells, cAMP HTRF, 30 min; control for the full effect not named in the record; active = well fitted activation curve with a large enough effect; inconclusive = small, poorly fitted or top-dose-only effect, or another doubt; inactive = no such curve, though single readings can be large or run the other way; cell line not stated here;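 also: phosphodiesterase inhibitor Ro 20-1724 added with compounds to block cAMP breakdown; potency is read from the fitted curve at half-maximal effect; nearly all actives have a fitted effect of over 60% in size; about a fifth of the inactives were tested at one dose only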
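Cells in DMEM/10% FBS with G418 were pretreated with compounds in DMSO plus […] (300 uM stock) for 30 min at 37C. cAMP was measured by HTRF (cAMP-d2 plus anti-cAMP antibody-K) after 30 min at room temperature.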
Six1-Eya2 inh: qHTS Assay for Inhibitors of the Six1/Eya2 Interaction | Homeobox protein SIX1 (Homo sapiens) + Protein phosphatase EYA2 (Homo sapiens), … | AlphaScreen GST-Six1/His-Eya2 binding, biochemical; stronger effect = lower value; control for the full effect not named in the record | activity change, % (concentration not given with the values) | 0.56% of 360,000 active | AID 651725, 2012; in the data active = activity change below about -65%; inconclusive = about -30% to -65%; inactive = above about -30%; also: % is scaled to controls: 0 for no effect and ±100 for the full control effect
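Compounds are tested against tagged Six1 and Eya2 proteins bridged by glutathione donor and nickel acceptor beads; after a one-hour incubation at 37 °C without light, AlphaScreen emission is recorded.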
CtBP-E1A inh: qHTS Assay for Inhibitors of the CtBP/E1A Interaction; AID 651724, 2012; 0.49% of 340,000 active; AlphaScreen GST-E1A/His-CtBP binding, 1536-well; stronger effect = lower value; control for the full effect not named in the record; activity change, % (test concentration not listed); in the data active means activity change below about -65%; inconclusive means about -30% to -65%; inactive means above about -30%; also: % is scaled to controls: 0 for no effect and ±100 for the full control effect; compound concentration not given in the record
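Steps: dispense buffer (Tris pH 8.0, NaCl 300 mM, TCEP 1 mM, BSA, Tween 20); add 5X protein mix (GST-E1A, His-CtBP, 125 nM each); pin 23 nL compound; 2 h at 37 °C, dark; add 5X beads (50 ug/mL); 1 h; read.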
Active calls of the source: *; ? = inconclusive; . = no result given; [ ] = dose if it differs, or a comment. Random draw from the library; about 1.4% have a hit in one of these screens.

Second line of a record – CtBP-E1A inh	D2 PAM	D2 agonist	gsp ag	Six1-Eya2 inh	gsp antagonist
> CC(O)c1nc2ccccc2n1CC(=O)Nc1ccc(F)cc1Cl (configuration not stated)
 : 2	-5	-3.0	-4%	0	-3%
> Nc1nnc(SCC(=O)OCC(=O)NC2CCCCC2)s1
 : .	-4	-4.3	-37%[inhibitor]	5	1%
> O=C1[C@H]2[C@@H](c3ccc(Cl)cc3)N3C(=O)N(c4cccc(F)c4)C(=O)[C@@]3(Cc3ccccc3)[C@H]2C(=O)N1C1CCCCC1
 : -7	-14	-3.5	0%	-4	-7%
> N/C(Cc1ccc(Cl)cc1Cl)=N\OC(=O)c1ccccc1
 : .	22	63*	?	-1	0%
> COc1ccc(-c2cc(NC=O)c3ncc(-c4cccc(OC)c4)n3c2)cc1
 : -14	-3	9.0	.	-18	.
> CC(C)(C)c1ccc(C(=O)N2CCC2(C)C(=O)NCc2cccs2)cc1 (configuration not stated)
 : 8	-10	3.6	.	0	.
> Cc1ccc(S(=O)(=O)N2CCN(Cc3cc(=O)n4ccccc4n3)CC2)c(C)c1
 : -8	0	-2.4	-3%	0	3%
> O=C(c1cc(C2CC2)nc2ccccc12)N1N=C(C(F)F)CC1(O)C(F)F (configuration not stated)
 : 0	3	-2.6	-27%	-2	3%
> O=C(/C=C/c1ccc2ccccc2n1)c1cc(Br)ccc1O
 : -5	4	4.5	-4%	-7	-8%
> CCOC(=O)c1cnc2ccc(C(=O)OC)cc2c1NCCCN1CCOCC1
 : -9	-6	-1.8	-8%[15.4 µM]	4	-15%
> CCOC(=O)C1=C(O)CSC1=Nc1ccc(C)cc1
 : 15	-5	0.5	15%[15.4 µM]	2	.
> COc1ccc(NC(=O)COC(=O)c2ccc(C)c(S(=O)(=O)N3CCCCC3)c2)cc1
 : -7	1	0.0	-37%[inhibitor]	-10	-14%
> C[C@@H]1CCCCO[C@@H](CN(C)C(=O)CCC(F)(F)F)[C@@H](C)CN([C@H](C)CO)C(=O)c2cc(N(C)C)ccc2O1
 : 5	.	-0.6	?	-4	.
> CN(C)C(=O)c1ccc(NC(=O)COC(=O)C2CCN(S(=O)(=O)c3ccc4c(c3)OCCO4)CC2)cc1
 : -10	7	-0.8	2%	12	-2%
> C#CCOCCOCCOCCNc1nc(N2CCN(C(=O)Cn3cc(CCCCN)nn3)CC2)nc(N2CCN(C(=O)[C@H](C)n3cc(CCC(=O)O)nn3)CC2)n1
 : .	-4	0.8	2%	8	20%
> CN1CCN(C(=O)c2ccc3c(c2)NC(=O)/C(=C/c2ccccc2)S3)CC1
 : -9	-12	-2.8	29%	-3	-13%
> CC(C)CC(=O)NC(=S)Nc1nc(-c2ccc(Cl)cc2)cs1
 : .	-3	-5.1	-12%	22	10%
> O=C(CCC1CCCCC1)Nc1ccccc1C(=O)N1CCOCC1
 : -2	-1	1.0	12%[15.4 µM]	7	2%
> COc1ccc(NC(=O)c2cc3ccccc3[nH]2)cc1
 : .	-32	2.1	27%	11	1%
> CC(/C=C/c1ccccc1)=N/NC(=O)c1cccc(Br)c1
 : -5	-21	-0.9	-3%[15.4 µM]	-3	-6%
> CCC(Cc1ccccc1)NC(=O)CSc1ccsc1[N+](=O)[O-] (configuration not stated)
 : -2	-20	-2.9	-21%	-1	5%
> Cc1nc2c(C(=O)NCCC(C)C)c[nH]n2c(=O)c1Cc1ccccc1F
 : -7	5	3.3	-19%	1	20µM*
> CC1CC(C)CN(CCCNS(=O)(=O)c2cc(Br)cc3c2N(C(=O)C2CC2)CC3)C1 (configuration not stated)
 : -17	-8	1.1	13%	-7	0%
> COc1ccc(CCn2c(NN)nc3c2c(=O)[nH]c(=O)n3C)cc1
 : ?	8	?	14%	?	14%
> Cn1ccc2c(-c3cccc(C=O)c3)cc3c(c21)C1CCC3C1 (configuration not stated)
 : -20	-9	-4.4	.	-2	.
> CC1(C)CC(O)(CNCc2ccc3c(c2)OCO3)CCO1 (configuration not stated)
 : -3	18	?	18%	9	?
> CSCCC(NS(=O)(=O)c1ccc2c(c1)oc(=O)n2C)C(=O)NCc1cccs1 (configuration not stated)
 : 4	-1	2.5	-15%[15.4 µM]	-4	9%
> CN(C(=O)CSc1nccc(=O)[nH]1)C1CCCCC1
 : -4	-3	-3.6	3%	7	-3%
> CC(=O)c1c(C)n(-c2ccc(N(C)C)cc2)c2ccc(OCC(N)=O)cc12
 : -8	8	-1.1	-11%	-14	-35%
> Cc1nc(-c2ccc(S(=O)(=O)N3CCN(c4ccccc4)CC3)cc2)co1
 : .	-7	5.6	13%	-11	-1%
> Cc1cc(N/N=C/c2ccccc2O)nc(N2CCOCC2)n1
 : 22	0	1.8	-12%[15.4 µM]	3	-16%
> Cc1cc(C)c(CN2CCC(N3CCC(C(=O)NCC4CCCO4)CC3)CC2)cc1C (configuration not stated)
 : 1	-10	0.7	?	1	10%
> CC(NC(=O)c1ccc(Cl)cc1)c1nnc(SCc2ccc([N+](=O)[O-])cc2)n1C (configuration not stated)
 : -2	-4	0.7	-33%[inhibitor]	-1	9%
> CC(C)C1CCN(C(=O)C2CCC(=O)N(C3CCCCCC3)C2)CC1 (configuration not stated)
 : 1	-2	-1.5	?	0	.
> CC(=O)CSc1nnc(-c2cnccn2)n1-c1ccccc1
 : 4	0	-3.7	-5%[15.4 µM]	0	11%
> Cc1ccc(S(=O)(=O)N2CCCCC2)cc1NC(=O)c1ccccn1
 : -9	-10	-1.1	6%	3	-1%
> Nc1nnc(SCC(=O)N2CCc3ccccc32)n1-c1ccccc1
 : 1	3	-3.4	18%	2	6%
> NNC(=O)c1ccc(Cn2cc(Br)cn2)cc1
 : 7	-11	1.2	4%	-4	10%
> COC(=O)CCCC(=O)N1CCCC(CNS(=O)(=O)c2ccc(OC)cc2)C1 (configuration not stated)
 : 6	-3	-8.4	2%	3	5%
> CCn1c(=O)c(=O)n(CC)c2cc(S(=O)(=O)Nc3ccc(C)cc3)ccc21
 : .	-11	-3.6	-34%[inhibitor]	9	-29%

Copied from the list:
`Cc1cc(C)c(CN2CCC(N3CCC(C(=O)NCC4CCCO4)CC3)CC2)cc1C` (configuration not stated) – D2 agonist = 0.7
`Nc1nnc(SCC(=O)OCC(=O)NC2CCCCC2)s1` – D2 agonist = -4.3

(list continues)
Second line of a record – CtBP-E1A inh	D2 PAM	D2 agonist	gsp ag	Six1-Eya2 inh	gsp antagonist
> COc1cc(/C=N/NC(=O)CC#N)cc(Br)c1O
 : ?	-5	-3.4	-11%[15.4 µM]	?	-12%
> Cc1ccc(-c2nnn(CC(=O)N(CCN3CCOCC3)C(C(=O)NC3CCCC3)c3ccncc3)n2)o1 (configuration not stated)
 : 6	-2	-7.9	-15%	3	2%
> O=C(O)CSc1ncccn1
 : 3	-2	-2.1	19%	14	16%
> CC1(c2nnc(Cc3ccccc3)o2)CC(c2ccccc2Br)=NO1 (configuration not stated)
 : .	-9	-2.2	?	14	4%
> Nc1cc(=O)[nH]c(SCC(=O)N2N=C(c3ccc(Cl)cc3)CC2c2ccco2)n1 (configuration not stated)
 : -5	-2	-6.6	1%[15.4 µM]	-10	-7%
> CCCCC(=O)NC(=S)Nc1ccc(S(=O)(=O)N2CCCC2)cc1
 : 1	-20	-2.3	5%	-1	2%
> COC(=O)c1cc(S(=O)(=O)N2CCCC2=O)c(Cl)cc1Cl
 : .	-16	-2.7	-4%	6	-7%
> CCN1CCN(c2ccc(S(=O)(=O)N3CCCCC3)cc2NC(=O)CC(C)c2ccccc2)CC1 (configuration not stated)
 : 0	6	-7.7	-4%[15.4 µM]	5	-6%
> O=C(CCC1CCCC1)Nc1ccc(Br)cn1
 : 10	-4	-0.1	23%	5	11%
> CCc1nnc(NC(=O)C2CCC(CNc3c(N4CCC(C)CC4)c(=O)c3=O)CC2)s1 (configuration not stated)
 : 2	-6	-3.7	-4%[15.4 µM]	7	8%
> C[C@H](CO)N1C[C@H](C)[C@@H](CN(C)S(C)(=O)=O)Oc2c(NC(=O)Nc3ccc4c(c3)OCO4)cccc2C1=O
 : 16	.	0.0	.	1	1%
> NC(=O)Nc1ccc(C(=O)N2CCN(S(=O)(=O)Cc3ccccc3)CC2)cc1
 : -25	-3	2.5	-3%	-14	9%
> CCCCNc1c(-c2ccc(OC)c(Sc3ccc(OC)cc3)c2)nc2ccccn12
 : -18	26	?	.	-20	?
> O=C(CCN1C(=O)/C(=C\c2ccc(F)cc2)SC1=S)Nc1ccccc1
 : 16	-5	0.4	1%[15.4 µM]	0	-24%
> Cc1cc(S(=O)(=O)N2CCCC2)ccc1OCC(=O)N1CCOCC1
 : 5	-4	-3.7	37%	4	14%
> O=C(c1cc(-c2ccccc2)nc2ccccc12)N1CCN(c2ccccc2O)CC1
 : -1	4	0.1	-6%[15.4 µM]	-21	-20%
> C=CCNC(=O)c1ccc(C)cc1Cl
 : -1	-1	-3.5	-10%	5	6%
> CNC(=O)C1C(=S)NC(N)=C(C#N)C1c1ccccc1 (configuration not stated)
 : -4	-2	-4.3	-36%	-11	9%
> O=C(O)c1[nH]c2ccc(Br)cc2c1CCN1C(=O)c2cccc([N+](=O)[O-])c2C1=O
 : -8	-3	-1.7	1%	-3	?
> CC(C)(C)OC(=O)N(CCc1ccccc1)Cc1ccccc1OCc1cccc(NC(=O)C2CC2)c1
 : -6	-6	-2.7	.	-2	-12%
> CCN1CCN(C(=O)CNC(=O)c2nn(-c3ccc(OC)cc3)c(=O)c3ccccc23)CC1
 : 1	-6	-2.4	4%[15.4 µM]	-8	9%
> CCOC(=O)c1sc2nc(C)nc(NCc3ccc(Cl)cc3)c2c1C
 : -19	-9	-3.8	-2%[15.4 µM]	2	-2%
> CCOC(=O)C1CCN(C(=O)c2cc(S(=O)(=O)N(C)C)ccc2N2CCCC2)CC1
 : 9	-12	-7.2	?	5	-21%
> Cc1ccc(NC(=O)/C=C/c2ccc([N+](=O)[O-])s2)c(C)c1
 : -10	-23	4.6	-1%	-16	-16%
> CCOc1ccc(CSC(=N)N)cc1Cl
 : .	-24	-6.0	-18%	10	1%
> CC1CCN(S(=O)(=O)c2ccccc2)CC1
 : 5	-5	10	-1%	3	-2%
> CCOC(=O)c1nnn(-c2nonc2N)c1-c1ccc(C)cc1
 : 9	-5	-0.6	11%	5	-3%
> O=C(CCCN=C1NS(=O)(=O)c2ccccc21)OCC(=O)c1ccc(F)c(F)c1
 : 1	-22	-6.1	5%	0	-1%
